VACV mCherry inh: inhibitors of vaccinia virus infection (mCherry reporter signal); Vaccinia virus mCherry reporter infection, fluorescence; about a quarter of the inactives have no number; Potency, µM (top dose mostly 36.5 µM), without a hit: at the highest dose activity change, negative = inhibition, actives largely listed as inhibitors; actives 0.63% (n = 310,000); AID 720579; active = well fitted inhibition curve with a large enough effect; inconclusive = small, poorly fitted or top-dose-only effect; inactive = no such curve, though single readings can be large or run the other way; tested in A549 cells; further: nearly all actives have a fitted effect of over 35% in size; inactives centre near -10
VACV Venus inh: inhibitors of vaccinia virus (Venus reporter); Vaccinia virus Venus reporter expression, fluorescence; Potency, µM (highest dose often 36.5 µM), without a hit: at the top dose activity change, negative = inhibition, actives largely listed as inhibitors; actives 0.46% (n = 330,000); AID 720580; active means well fitted inhibition curve with a large enough effect; inconclusive means small, poorly fitted or top-dose-only effect; inactive means no such curve, though single readings can be large or run the other way; tested in A549 cells; further: nearly all actives have a fitted effect of over 30% in size; inactives centre near -10
* = called active by the depositor; i = inactive; ? = inconclusive; . = not tested or not shown; [ ] = dose if it differs, or a comment. On the % scale 0 is the no-effect control and ±100 the full control effect; potency means the concentration at half of the fitted maximal effect.

SMILES | VACV mCherry inh | VACV Venus inh
O=C(NCc1ccc(F)cc1)N1CCc2ccccc2C1 | -8% | -12%
CCn1c2ccccc2c2nnc(N3CCN(c4ccc(OC)cc4)CC3)nc21 | -13% | -13%
CC(C)Oc1ccc(CNC(=O)CN2C(=O)CCn3nc(-c4cn(C)c5ccccc45)cc32)cc1 | -15% | -13%
Nc1nnnn1CC(=O)N/N=C/c1cc([N+](=O)[O-])ccc1O | -12% | -6%
CCCOC(=O)c1cccc(Nc2nc(C(=O)OCC)nc3ccccc23)c1 | -14% | -12%
COc1ccc(N(CC(=O)Nc2cccc(C(F)(F)F)c2)S(=O)(=O)c2c(C)[nH]c(=O)[nH]c2=O)cc1 | i | -16%
COc1ccccc1N1CCN(C(CNC(=O)Oc2ccccc2)c2cccnc2)CC1 (stereo not drawn) | i | -9%
Cc1ccc(NS(=O)(=O)c2ccc(N3CCN(c4ccc(O)cc4)CC3)c([N+](=O)[O-])c2)c(C)c1 | -25% | -24%
CCCCNC(=O)CCC1N=C2c3ccccc3N=C(SCC(=O)NCCc3ccc(OC)c(OC)c3)N2C1=O (stereo not drawn) | -2% | 8%
Cc1csc(NC(=O)CSc2ccc(-c3ccccc3)nn2)n1 | -1% | -5%
CCCCn1c(N)c(N(CCOC)C(=O)C2CCN(S(=O)(=O)c3ccc(C)cc3C)CC2)c(=O)[nH]c1=O | -14% | -14%
CCOC(=O)C(CC)Sc1ncnc2c1nnn2-c1ccc(F)cc1 (stereo not drawn) | . | -6%
O=C(O)c1ccc(-n2nnnc2SCc2ccccc2F)cc1 | i | -10%
CCCCc1c(-c2ccccc2OC)ncn1CCc1cccc(OC)c1 | -16% | -20%
COc1cc(C(c2sc3nc(C)nn3c2O)N2CC(C)OC(C)C2)cc(OC)c1OC (stereo not drawn) | i | -10%
CCCNC(=O)C1(C)CCN(Cc2ccc(Cl)c(Cl)c2)C1 (stereo not drawn) | 10% | 4%
O=C(COc1ccccc1)N(Cc1ccco1)C1CCS(=O)(=O)C1 (stereo not drawn) | -15% | -17%
COc1ccc(OC)c(NC(=O)NNC(=O)CCCOc2ccc(Cl)cc2C)c1 | -8% | -11%
Cc1ccc(C(=O)N/C(=C\c2ccccc2)C(=O)NCc2ccncc2)cc1 | -8% | -5%
O=C(Cc1ccccc1)N1CCN(Cc2ccc(Cl)cc2)CC1 | -2% | -11%
CCCSc1cc(N2CCCC2)nc(-c2ccccc2)n1 | . | -5%
COc1ccc(/C=C/c2nc3ccccc3n2Cc2ccccc2OC)cc1 | -4% | -12%
OC(COc1ccc2c(c1)CCC2)CN1CCN(c2cccc(Cl)c2)CC1 (stereo not drawn) | -15% | -1%
CCc1ccc(NC(=O)CN2C(=O)C3(SCC(=O)N3c3ccc(F)c(F)c3)c3ccccc32)cc1 (stereo not drawn) | ? | ?
Cc1cccc(NC(=O)NC(=S)NC(=O)c2ccccc2)c1 | ? | 10µM*
CCN(C(=O)Cn1c(=O)n(Cc2ccc3c(c2)OCO3)c(=O)c2ccc(C(=O)NC3CCCCC3)cc21)c1cccc(C)c1 | 3% | -4%
CC(=O)O[C@H]1C[C@@H]2CC[C@@H]3[C@H](CC[C@]4(C)C(=O)CC[C@@H]34)[C@@]2(C)C[C@@H]1OC(C)=O | 2% | 4%
CCc1ccc(/C=C2\Oc3ccc(C(=O)OC)cc3C2=O)cc1 | -12% | -6%
COc1ccc(-c2cc(C(N)=O)nc(N3CCCCCC3)n2)cc1 | . | -13%
O=C(NCCc1ccccc1)c1cccs1 | -18% | -10%
CCN(CC)CCCNC(=O)Cc1c(C(=O)O)n(C)c2ccccc12 | -2% | -5%
CSc1ccccc1C(=O)N(C)Cc1ccccc1 | -8% | -3%
CCN(CC)C(=S)NC(=O)c1ccc(F)cc1 | ? | ?
CC1Cc2nc(SCC(=O)N3CCN(c4ccccc4)CC3)n(C)c(=O)c2S1 (stereo not drawn) | -3% | 7%
O=c1c2ccccc2nc(CSc2ncnc3nc[nH]c23)n1-c1ccccc1Cl | ? | -22%
Cc1ccc(C)c(NC(=O)C(Sc2nc3ccccc3c(=O)n2CC(C)C)c2ccccc2)c1 (stereo not drawn) | i | -5%
COc1cccc(C(=O)Nc2cccc(-c3cn4c(C)csc4n3)c2)c1OC | -6% | -3%
COc1ccc(NC(=O)CSc2nccn2Cc2ccccc2)c(OC)c1 | -19% | -16%
COC(=O)c1ccc(/C=N/NC(=O)C(=O)NCC2CCCO2)cc1 (stereo not drawn) | i | -6%
Cc1noc(/C=C/c2ccccc2F)c1S(=O)(=O)N1CCC(C(=O)NCc2ccco2)CC1 | -4%[7.34 µM] | -5%[7.34 µM]
CCCOc1nc(C)cc(COC)c1C(N)=O | 2% | -14%
O=c1[nH]c(CN2CCc3ccccc32)nc2scc(-c3cccs3)c12 | i | -15%
Cc1cc(N2CCCCC2)nc(N2CCCCC2)n1 | -20% | -26%
CCOc1ccc(NC(=O)CN(C)C(=O)CSCc2ccc(C)cc2)cc1OCC | -7% | -22%
C(#Cc1ccccc1)C[N+]1(CC#Cc2ccccc2)CCCCC1 | -18% | -3%
O=C(c1ccccc1)N(Cc1nc2ccccc2c(=O)[nH]1)C1CCCCC1 | -8% | -14%
COc1cccc(NC(=O)CN(C)C(=O)Cc2ccc(Cl)cc2Cl)c1 | -2% | -6%
CCCNC(=O)N1[C@H]2CC[C@@H]1C(C(=O)OC)=C(c1ccc(-c3ccccc3)c(F)c1)C2 | ? | ?
CCCCc1ccc(NC(=O)CSC2=NN3CCCC(=O)N=C3S2)cc1 | 13% | -4%
COc1cc(OC)cc(C(=O)NC(=S)NNC(=O)[C@H]2C[C@@H]2c2ccccc2)c1 | -19% | -6%

A draw from above in order of SMILES length, smallest number first.
SMILES | VACV mCherry inh | VACV Venus inh
Cc1cc(N2CCCCC2)nc(N2CCCCC2)n1 | -20% | -26%
O=c1[nH]c(CN2CCc3ccccc32)nc2scc(-c3cccs3)c12 | i | -15%
CCOc1ccc(NC(=O)CN(C)C(=O)CSCc2ccc(C)cc2)cc1OCC | -7% | -22%
CCCNC(=O)N1[C@H]2CC[C@@H]1C(C(=O)OC)=C(c1ccc(-c3ccccc3)c(F)c1)C2 | ? | ?

Continued:
SMILES | VACV mCherry inh | VACV Venus inh
NS(=O)(=O)c1ccc(N=Nc2c(-c3ccccc3)[nH]n(-c3nc(-c4ccccc4)cs3)c2=O)cc1 | i | -18%
C=COC(=O)CSc1snc(SCC(=O)OC)c1C#N | . | -7%
COc1ccc(NC(=O)CC2SC(=O)NC2=O)cc1 (stereo not drawn) | -10% | 3%
Cc1cccc(C)c1NC(=O)Cn1c(CN2CCCCC2)nc2ccccc2c1=O | . | -2%
COc1ccc2c(CNCc3ccco3)c(C(=O)O)n(Cc3ccc(F)cc3Cl)c2c1 | i | -12%
Cc1ccc2c(c1)N(C(=O)CCC(=O)NC1CCC(C)CC1)CCO2 (stereo not drawn) | 7% | -5%
CC1=C(C(=O)Nc2ccccc2)C(c2cccc(O)c2)n2nc(-c3ccccc3Cl)nc2N1 (stereo not drawn) | -5% | -4%
CC1(C)Cc2c(cnn2-c2cccc(F)c2)C(NC(=O)C2CCOCC2)C1 (stereo not drawn) | -8% | -6%
CCOc1ccc(N(CC(=O)NC2CCCC2)S(=O)(=O)c2c(C)[nH]c(=O)[nH]c2=O)cc1 | -11% | -7%
Cc1ccc(Cl)cc1NC(=O)CCCN1C(=O)CCn2nc(-c3cn(C)c4ccccc34)cc21 | -18% | -9%
O=C1C=C(c2ccc(CO)cc2)C[C@@H](c2ccc3c(c2)OCO3)C1 | 0% | -12%
CCN1C(=O)CCN(C2CCCC2)c2nc(Nc3ccc(C(=O)NC4CCN(C)CC4)cc3OC)ncc21 | ? | ?
COc1ccc(N2CCOCC2)c(NC(=O)c2cc3ccccc3o2)c1 | -20% | -10%
O=c1c2c3c(sc2nc2n1CCCC2)CCC3 | -20% | -11%
O=C(Nc1ccc2c(c1)OCCO2)C1c2ccccc2OCC(=O)N1CCc1ccccc1 (stereo not drawn) | 8% | -7%
Cc1[nH]c2ccccc2c(=O)c1CN1CCCCCC1 | i | -12%
Cc1ccc(C(=O)OCC(=O)Nc2nc(-c3ccccc3)cs2)cc1NC(=O)c1ccco1 | ? | ?
COc1ccc(C(=O)Nc2cccc(-c3cnc4ccccc4n3)c2)cc1 | -12% | -6%
O=C(COC(=O)/C=C/c1ccc(OC(F)F)cc1)Nc1ccc2[nH]c(=O)[nH]c2c1 | -17% | -5%
COc1ccc(C(=O)OCC(=O)NCCc2ccc(F)cc2)cc1S(=O)(=O)N1CCOCC1 | -12% | -6%

Full records, quoted from the list. Order of values: VACV mCherry inh, VACV Venus inh
O=C(Nc1ccc2c(c1)OCCO2)C1c2ccccc2OCC(=O)N1CCc1ccccc1 (stereo not drawn) in the list: 8%, -7%
COc1ccc(N2CCOCC2)c(NC(=O)c2cc3ccccc3o2)c1 in the list: -20%, -10%

Further structures follow:
SMILES | VACV mCherry inh | VACV Venus inh
O=C(NC(=S)NNC(=O)c1ccccc1O)c1ccco1 | -17% | -6%
CCCN1CN=C(Nc2nc3ccccc3o2)NC1 | i[7.34 µM] | 1%[7.34 µM]
CC(C)NC(=O)c1cc(=O)n(C)c(=O)n1C | -6% | -2%
CC(C)NC(=O)c1ccc(Cn2c(=O)c3cccn3c3cccnc32)cc1 | -11% | -13%
NC(N)=NN=Cc1ccnc2ccccc12 | i | -5%
CC(=O)OC(C)(C)/C=C/C(=O)[C@](C)(O)[C@H]1[C@H](O)C[C@@]2(C)[C@@H]3CC=C4[C@H](C[C@H](O)C(=O)C4(C)C)[C@]3(C)C(=O)C[C@]12C | ? | 8.9µM*
CC(C)N(C(=O)[C@H]1C[C@H](CC(=O)NCc2cccc(C(F)(F)F)c2)C(=O)N2CCc3c([nH]c4ccc(Cl)cc34)[C@]12C)C(C)C | ? | 11µM*
CCOC(=O)C1CCCNC1=O (stereo not drawn) | -12% | -5%
O=C(/C=C/c1cccs1)c1ccc(NC(=O)c2ccccc2F)cc1 | -9% | 1%
COc1cccc2c(=O)n(CC(=O)N3CCCCCC3)ccc12 | 3% | 13%
O=C1CN(C(=O)CSc2nc(-c3ccc(Cl)cc3)cs2)c2ccccc2N1 | ? | ?
CCOC(=O)C1(CCc2ccccc2)CCN(C(=O)CCc2cnccn2)CC1 | -12% | -17%
O=C(NCc1ccccc1)C1=C[C@H](c2ccc(C(F)(F)F)cc2)C[C@H](OCc2ccc(CO)cc2)O1 | i | -13%
O=C(COc1ccc(S(=O)(=O)N2CCCCC2)cc1)NC1CCCCC1 | . | 3%
CN(CC(=O)Nc1cccc(F)c1)C(=O)c1csc2c1CCCC2 | i | -26%
Cc1ccc(NC(=O)Cc2c(Cl)cccc2Cl)cc1S(=O)(=O)N(C)C | -19% | -4%
CCc1c(C)nc(N)nc1N1N=C1SCC(=O)OC | -3% | 3%
CCN1C(=O)N(CN2CCOCC2)C2C1N(CN1CCOCC1)C(=O)N2CC (stereo not drawn) | . | -10%
O=C([C@@H]1CC=C[C@@H]2CCN(C3CCCCC3)C(=O)[C@@H]21)N1CCOCC1 | i | -11%
Cc1ccccc1CN1CCN(CC(=O)NCc2ccccn2)C1=O | -25% | -6%
COc1cccc(CNCc2ccc3c(c2)OCO3)c1 | -5% | -15%
C=CCN1C(=O)C(CC(=O)NCC)SC1=Nc1cc(Cl)ccc1Cl (stereo not drawn) | -8% | 4%
Cn1c(Oc2ccc(F)cc2F)c(C=O)c2ccccc21 | i | -11%
Cc1cccc(-c2nc3scc(CCNS(=O)(=O)c4ccc5c(c4)OCCO5)n3n2)c1 | -4% | -4%
COC1(OC)C(=N/O)/C(=N\O)CCC1O (stereo not drawn) | -1% | -4%
COc1ccc([C@H](NC(=O)OC(C)(C)C)C(=O)OC(C)(C)C)cc1 | i | -3%
COc1ccc(CCNC(=O)c2cnn(-c3nccc(-c4ccco4)n3)c2C)cc1 | -18% | -5%
CCCN1CNC(=S)N(CC2CCCO2)C1 (stereo not drawn) | 1% | 0%
CC(C)(C)NC(=O)CCN1CCOCC1 | . | -22%
CN(Cc1ccccc1)C(=O)c1ccc(NC(=O)Cc2ccc(NC(=O)C3CCN(C(=O)CCc4ccccc4)CC3)cc2)cc1 | ? | ?

Among those listed so far, 2 have a tert-butyl group.
SMILES | VACV mCherry inh | VACV Venus inh
COc1ccc([C@H](NC(=O)OC(C)(C)C)C(=O)OC(C)(C)C)cc1 | i | -3%
CC(C)(C)NC(=O)CCN1CCOCC1 | . | -22%

More results.
SMILES | VACV mCherry inh | VACV Venus inh
O=C(Nc1ccc(N2CCCCC2)cc1)c1cc([N+](=O)[O-])cc([N+](=O)[O-])c1 | -21% | -21%
Cc1cc(C(=O)CCC(=O)N(C)CC(=O)Nc2ccccc2Br)c(C)s1 | -6% | -14%
COc1cccc(CN2CCN(c3ccc(F)cc3)C2=O)c1 | -14% | -19%
O=C(O)CCSc1ncnc2sc(-c3ccccc3)cc12 | i | -1%
COCCNC(=O)C(c1cccs1)N(C(=O)Cn1nnc2ccccc21)c1ccc2c(c1)OCO2 (stereo not drawn) | -10% | -11%
N#CCCN(Cc1cccnc1)C(=O)Nc1cccc(Cl)c1 | . | -17%
CC1CCC(NC(=O)CCS(=O)(=O)c2ccc3c(c2)oc(=O)n3C)CC1 (stereo not drawn) | -8% | -10%
CC(C)c1ccc(N2C(=O)CSC23C(=O)N(C)c2ccccc23)cc1 (stereo not drawn) | 0% | 10%
C/C(=N\NC(=S)Nc1ccc(F)cc1)C1CC1 | i | 0%
CCn1c(CNc2ccc(F)cc2)nnc1SCC#N | -7% | -12%
COc1ccc(Cn2c(C(=O)O)c(CNCc3ccc(C)o3)c3ccc(C)cc32)cc1 | -15% | -19%
